# VDR inh: vitamin D3 receptor (human) inhibition; Potency, µM, for the others: max response, negative = inhibition, hits mostly inhibitors; hit rate 0.93% among 400,000; VDR-SRC2-3 peptide fluorescence polarization, 2 h; P11473; active = well fitted inhibition curve with a large enough effect; inconclusive = small, poorly fitted or top-dose-only effect, or another doubt; inactive = no such curve, though single readings can be large or run the other way; also: series mostly up to about 120 µM
# Target sequence (P11473 whole entry, looked up): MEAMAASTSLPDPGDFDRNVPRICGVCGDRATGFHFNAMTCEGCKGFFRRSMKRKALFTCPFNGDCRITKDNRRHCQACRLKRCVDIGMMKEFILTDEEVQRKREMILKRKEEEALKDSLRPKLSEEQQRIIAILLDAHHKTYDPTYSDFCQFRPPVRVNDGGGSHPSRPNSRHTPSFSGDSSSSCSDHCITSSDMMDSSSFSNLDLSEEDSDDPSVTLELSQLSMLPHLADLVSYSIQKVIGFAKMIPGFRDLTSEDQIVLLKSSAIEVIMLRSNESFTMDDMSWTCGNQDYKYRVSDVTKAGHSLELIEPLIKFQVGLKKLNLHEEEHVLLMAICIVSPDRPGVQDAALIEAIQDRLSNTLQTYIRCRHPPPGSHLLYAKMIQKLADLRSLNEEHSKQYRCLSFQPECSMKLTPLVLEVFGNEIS
#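 Inhibition of the VDR/SRC2-3 peptide interaction is quantified by fluorescence polarization. Compounds (23 nl, pintool) incubate with the reagents for 2 hours at ambient room temperature.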
# * hit, by the source's call; ? = inconclusive; & = joins results of further samples; [ ] = dose if it differs, or a comment. % is scaled to controls: 0 for no effect and ±100 for the full control effect; potency is read from the fitted curve at half-maximal effect. This is a subset (hit frequency here may not be typical).
# The opening 2 records, ahead of the listing:
VDR inh,smiles
8.2%,Cc1nnc(N2CCN(C(=O)Nc3cc(F)ccc3F)CC2)c2nn(-c3ccc(Cl)cc3)c(C)c12
-3.3%,COc1cccc2c1C(=O)c1c(O)c3c(c(O)c1C2=O)CC(O)(C(=O)CO)CC3OC1CC(N(C)C)C(O)C(C)O1 (centres undefined)

# The list itself, repeating the preview:
VDR inh,smiles
8.2%,Cc1nnc(N2CCN(C(=O)Nc3cc(F)ccc3F)CC2)c2nn(-c3ccc(Cl)cc3)c(C)c12
-3.3%,COc1cccc2c1C(=O)c1c(O)c3c(c(O)c1C2=O)CC(O)(C(=O)CO)CC3OC1CC(N(C)C)C(O)C(C)O1 (centres undefined)
-14.2%,O=c1[nH]c2ccsc2c(=O)n1-c1ccc(F)c(Cl)c1
-19.3%,CC(=O)c1cccc(NS(=O)(=O)c2cc3c(cc2C)NC(=O)CO3)c1
-11.2%,CCOC(=O)C1CCN(Cc2cc(C(C)C)c(O)c(C(C)C)c2)CC1
-15.9%,Cc1cc(C)cc(C(=O)Nc2ccc(-c3nc4ncccc4o3)cc2)c1
-2.1%,Cc1ccccc1OCC(=O)NNC(=O)CCc1ccccc1
7.7%,COc1cc(NC(=O)Cn2c(=O)ccc3cc(S(=O)(=O)N4CCCC4)ccc32)cc(OC)c1
-16.8%,COC(=O)c1[nH]c2cccc(OC)c2c1NC(=O)CCN1CCC(C)CC1
-20.9%,CCOC(=O)/C(C#N)=C/c1ccc(SC)cc1
-8.3%,CCCCOc1ccc(C2/C(=C(/O)c3ccc4c(c3)CC(C)O4)C(=O)C(=O)N2CCCN2CCOCC2)cc1OC (centres undefined)
-3.8%,O=C(COC(=O)c1cc2c(s1)CCCC2)Nc1ccc(Cl)cn1
-14.7%,COc1ccccc1/C=C1\Oc2cc(OC(=O)N3CCOCC3)ccc2C1=O
7.8%,CCOC(=O)c1ccc(NC(=O)C2CC(O)CN2S(=O)(=O)c2ccc(C)cc2)cc1 (centres undefined)
4.5%,COc1ccc(COC(=O)C2CC(=O)N(Cc3ccc(C)cc3)C2)cc1 (centres undefined)
-19.2%,Cc1c(Cc2ccc3c(c2)OCO3)sc(NC(=O)c2ccc3ccccc3c2)c1C(N)=O
-16.1%,COc1cc(C(=O)Nc2ccn(C)n2)ccc1OC(F)F
-6.3%,COc1ccc(/C(N)=N/OC(=O)CCc2ccccc2)cc1OC
-6.5%,CCc1ccc(S(=O)(=O)/N=C2\C=C(Nc3cccc(C(=O)O)c3)C(=O)c3ccccc32)cc1
4.3%,Cc1cccc(/C=N/NC(=O)c2ccc(NC(=O)c3ccccc3Cl)cc2)n1
-11.2%,Cn1c(=O)c2sccc2n2c(CCCC(=O)NCc3cccnc3)nnc12
5.0%,O=C(Nc1ccccc1-c1ccccc1)C12CC3CC(CC(C3)C1)C2
-28.0%,COC(=O)c1ccc(C2c3c(oc4ccccc4c3=O)C(=O)N2CCCN2CCOCC2)cc1 (centres undefined)
25.1µM*,CC(=O)OCC1=C(C(=O)O)N2C(=O)C(NC(=O)c3ccc(COc4cccc(Cl)c4Cl)o3)C2SC1 (centres undefined)
-3.7%,Cc1ccc(-c2csc(NC(=O)c3ccc(C)o3)n2)cc1
6.1%,O=c1cc(-c2ccc3c(c2)OCO3)oc2ccccc12
14.2%,CCOC(=O)c1c(S(=O)(=O)Nc2cccc(-c3ccno3)c2)c(C)n(C)c1C
-5.9%,Cc1ccccc1NC(=O)C1CCN(C(=O)N2CCOc3ccccc32)CC1
0.1%,CC(C)(C)NC(=O)N1CCC(CO)(Cc2ccccc2Cl)CC1
5.6%,O=C(COC(=O)c1ccc(N2CCCC2=O)cc1)NCc1ccco1
11.1%,N/C(=N\OC(=O)C(c1ccccc1)c1ccccc1)c1ccccn1
-9.8%,CCc1ccc(-c2nn(CC(=O)NC3CCCC3)c3c2cnc2ccc(C)cc23)cc1
5.0%,COc1cccc(N2CCN(C(=O)C3CCN(S(=O)(=O)c4ccc5c(c4)CC(C)N5C(C)=O)CC3)CC2)c1 (centres undefined)
13.5%,Cc1ccc[n+](CC(=O)Nc2ccc(Cl)c([N+](=O)[O-])c2)c1
-20.3%,Cc1ccccc1-n1ccnc1SCC(=O)Nc1cccc(S(=O)(=O)NC2=NCCC2)c1
10.9%,COCCNC(=O)/C(C#N)=C/c1cc(C)n(-c2ccc(C)cc2)c1C
-18.3%,COC/C=C/C1=CC2=CC(=O)C(C)(OC(=O)c3cnc4ccccc4n3)C(=O)C2=CN1CCCOC(C)C (centres undefined)
6.4%,Cc1ccc2[nH]c(=O)c3cc(C(=O)NCCN4CCN(C)CC4)sc3c2c1
-14.5%,Cc1c(C(=O)N(Cc2ccco2)Cc2cccs2)oc2ccccc12
-12.2%,O=C(N/N=C/c1cccc(OC(=O)c2ccc([N+](=O)[O-])cc2)c1)c1cccnc1
35.5µM*,Cc1[nH]n(-c2ncc(-c3ccccc3)s2)c(=O)c1C(c1ccc(Cl)cc1)C(C#N)C#N (centres undefined)
11.9%,Cn1c(CCNC(=O)c2ccc(F)cc2)nc2ccccc21
2.8%,CCN(CC(=O)NCc1cccs1)C(=O)c1ccc(S(=O)(=O)N(CC)c2ccccc2)cc1
-2.2%,CSC[C@@H]1NC(=S)N(c2ccc(C)cc2)C1=O
8.6%,CCOC(=O)C1=CN(Cc2cccc(-c3ccc4c(c3)OCO4)c2)S(=O)(=O)N(C)C1C (centres undefined)
5.1%,COc1ccc2c(c1)Sc1ccccc1N2
12.9%,O=C(CCc1ccccc1)N1CCCC(Nc2ccc(F)cc2)C1 (centres undefined)
-7.8%,CC(C)C[C@H](NC(=O)c1nc[nH]c1C(=O)NCCNC(=O)OC(C)(C)C)C(=O)CNCCNC(=O)c1[nH]cnc1C(=O)N[C@@H](C)C(=O)OC(C)(C)C
-12.8%,Cc1cccc([C@@H](NC(=O)OC(C)(C)C)C(=O)OC(C)(C)C)c1
2.6%,CCOC(=O)N1CCN(C(=O)CSc2nc(=O)n3cc(C)ccc3n2)CC1
0.8%,CCCC(=O)N1CC(=O)Nc2ccc(Cl)cc2C1c1ccc(F)cc1 (centres undefined)
-10.6%,COc1ccc(CCNC(=O)c2cccc(C(=O)NCCc3ccc(OC)cc3)n2)cc1
5.0%,CCCCN=c1sc(C(=O)OC)cc(=O)n1CCCC
-20.6%,CN(C1CCCCC1)S(=O)(=O)c1ccc(NC(=O)Cn2nc(-c3ccc(F)cc3)ccc2=O)cc1
-2.8%,N#CCCn1c(=O)c(-c2cccs2)nc2cnc(OCc3ccccc3)nc21
4.2%,Cc1ccc2cc(CCNC(=O)c3ccc(S(=O)(=O)N4CCOCC4)cc3)c(=O)[nH]c2c1
-2.5%,CCOC(=O)C1CCN(C(=O)c2cccc(S(=O)(=O)N3c4ccccc4CC3C)c2)CC1 (centres undefined)
-6.2%,Cc1cc(C)cc(Nc2ccc3nonc3c2[N+](=O)[O-])c1
-17.2%,CC1CCCCN1C(=O)CN1C(=O)CSc2ccc(S(=O)(=O)N3CCOCC3)cc21 (centres undefined)
-11.8%,CCOc1cc(S(=O)(=O)NCc2ccc3c(c2)OCO3)c(C)cc1C

# The listing continues.
VDR inh,smiles
8.4%,CC(=O)c1cccc(NC(=O)C(C)OC(=O)c2ccc(Br)o2)c1 (centres undefined)
11.6%,Cc1cc(-c2nnc3n2N=C(c2ccc(F)cc2)CS3)n[nH]1
-2.3%,Fc1ccc(Nc2nc(-c3ccncc3)nc3ccccc23)cc1
0.6%,COc1ccc(NC(=O)CCC(=O)Nc2nnc(CC(C)C)s2)cc1Cl
-17.5%,O=C(Cc1coc2ccc3ccccc3c12)N1CCc2ccccc21
39.8µM*,O=C(O)Cc1cccc(OCCCN(Cc2cccc(C(F)(F)F)c2Cl)CC(c2ccccc2)c2ccccc2)c1
4.8%,COC(=O)[C@H](C)[C@@H]1C[C@@]1(C)[C@@H](NC(=O)OCc1ccccc1)c1ccccc1
?,Cc1ccc(-n2c(Cl)c(Cl)nc(Cl)c2=O)cc1
0.2%,Fc1ccc2c(c1)Sc1ccc(Cl)cc1CC2N1CCN(CCC2OCCO2)CC1 (centres undefined)
-18.4%,Cc1cccc(OCCCCCNCCO)c1
-10.1%,Cc1nc2nc(C)c(CCC(=O)NCc3ccccc3)c(C)n2n1
5.9%,CC(OC(=O)Cn1ccccc1=O)C(=O)Nc1cc(Cl)cc(Cl)c1 (centres undefined)

# Part of the list above in order of count of non-hydrogen atoms, low to high:
VDR inh,smiles
-6.2%,Cc1cc(C)cc(Nc2ccc3nonc3c2[N+](=O)[O-])c1
-14.5%,Cc1c(C(=O)N(Cc2ccco2)Cc2cccs2)oc2ccccc12
-2.8%,N#CCCn1c(=O)c(-c2cccs2)nc2cnc(OCc3ccccc3)nc21
-28.0%,COC(=O)c1ccc(C2c3c(oc4ccccc4c3=O)C(=O)N2CCCN2CCOCC2)cc1 (centres undefined)

# (listing goes on)
VDR inh,smiles
11.3%,Cc1ccc2c(=O)cc(C(=O)NC3CCS(=O)(=O)C3)oc2c1C (centres undefined)
1.6%,O=C(Cn1cc(C(F)(F)F)ccc1=O)N/N=C/c1ccc(Cl)c(Cl)c1
-3.2%,O=C(Cn1cnc2c(oc3ccccc32)c1=O)NCC1CCCO1 (centres undefined)
-14.5%,COc1ccc(OC)c(CN2CCN(C(=O)c3cccc(S(=O)(=O)Nc4ccc(C)cc4)c3)CC2)c1
-10.2%,CN(CCCc1cnc[nH]1)C(=S)NCCCN(Cc1ccc(Cl)cc1)c1ccc(Br)cn1
-11.5%,O=C(Cn1nc(Cc2cccnc2)c2ccccc2c1=O)N1CCN(c2ccccc2F)CC1
-11.3%,O=C(Nc1ccc(C2CC2(Cl)Cl)cc1)c1ccccc1Br (centres undefined)
13.9%,COc1ccc(CNC(=O)CCc2ccc(S(=O)(=O)N3CCCCCC3)cc2)cc1
-3.2%,CC1(C)OC2OC3C(CN)OC(c4ccccc4)OC3C2O1 (centres undefined)
?,Cc1cnc(CNc2ncncc2-c2ccc(N(C)C)cc2)cn1
15.8%,Cc1cccc(-c2nnc(SCC(=O)N3c4ccccc4CCc4ccccc43)n2C)c1
5.6%,COc1ccc(NC(=O)CC2Oc3ccc(C)cc3NC2=O)cc1 (centres undefined)

# Some of the entries above in another layout.
CN(CCCc1cnc[nH]1)C(=S)NCCCN(Cc1ccc(Cl)cc1)c1ccc(Br)cn1
- VDR inh: -10.2%
O=C(Cn1nc(Cc2cccnc2)c2ccccc2c1=O)N1CCN(c2ccccc2F)CC1
- VDR inh: -11.5%
COc1ccc(NC(=O)CC2Oc3ccc(C)cc3NC2=O)cc1 (centres undefined)
- VDR inh: 5.6%

# The listing continues.
VDR inh,smiles
14.2%,COc1cccc(CC(=O)Nc2c(C(=O)N3CCN(c4ccccc4)CC3)oc3ccccc23)c1
-8.4%,Cc1cc(=O)oc2c(C)c(OCC(=O)N3CCN(c4cccc(Cl)c4)CC3)ccc12
6.7%,COc1cccc(NC(=O)c2cccc(OC)c2OC)c1
-4.1%,O=C(Nc1nnc(N2CCCCCC2)s1)c1cc(-c2ccc(Br)cc2)on1
0.0%,Cc1ccc(C(=O)NC(C)c2ccccc2)cc1Br (centres undefined)
-9.1%,Cc1ccc(N2OC3C(=O)NC(=O)C3C2c2ccco2)cc1 (centres undefined)
1.5%,COc1ccc(OC)c(C(=O)C2COC(=O)C2)c1 (centres undefined)
?,Cc1ccc(Cn2c(C3CCCN3c3nc(-c4ccc(F)cc4)cs3)nc3cc(C(=O)NCCCO)ccc32)cc1 (centres undefined)
14.8%,CC(=O)c1ccccc1NC(=O)COC(=O)Cc1cccc(C(F)(F)F)c1
-3.2%,Cc1ncccc1C(=O)N1CCCC(C(=O)c2ccc3c4c(cccc24)CC3)C1 (centres undefined)
0.1%,COC(=O)c1c(C)[nH]c(C(=O)CSc2nnnn2-c2ccccc2)c1C
-7.3%,Cc1c(NC(=O)c2cc(=O)[nH]c(=O)[nH]2)c(=O)n(-c2ccccc2)n1C
-3.0%,Cc1cccc(-c2nc3cc(NC(=O)Cc4ccc(Cl)cc4)ccc3o2)c1
10.7%,CCc1ccc(Nc2n[n+](-c3ccccc3)c(-c3ccc(OCc4ccccc4)cc3)s2)cc1
-21.2%,CCCCn1c2ccccc2c2nnc(SCCN3CCCCC3)nc21
7.0%,Cc1ccc(C)c(S(=O)(=O)Nc2ccc3[nH]c(=O)[nH]c3c2)c1
27.8%,Cc1ccc2c(n1)sc1c(=O)n(-c3cccc(C(F)(F)F)c3)nnc12
18.5%,CCOc1ccc(-c2nnc(Nc3ccc(OC)c(C(=O)N4CCCCC4)c3)c3ccccc23)cc1
30.2%[activator],O=C(NCC(c1ccc(F)cc1)N1CCOCC1)c1cccc(Br)c1 (centres undefined)
6.7%&19.0%,CC(C)(C)n1ncc2c(=O)n(Cc3c(F)cccc3Cl)cnc21
-1.2%,COC(=O)COc1ccc(/C=C2/SC(=O)N(CC(=O)N3CCCC3)C2=O)cc1Br
-1.9%,Cc1cc(C(=O)COC(=O)CC2Sc3ccccc3NC2=O)c(C)n1-c1ccc2c(c1)OCO2 (centres undefined)
-11.1%,CCc1ccc(S(=O)(=O)c2nnn3c2nc(N2CCN(c4ccccc4)CC2)c2cc(Cl)ccc23)cc1
-5.8%,CCN(C(=O)COC(=O)c1cccc(S(=O)(=O)NCc2ccccc2)c1)c1ccccc1
1.0%,Cc1ccc(C(=O)C2CCN(C(=S)NCC3CCCO3)CC2)cc1 (centres undefined)
-10.4%,COc1ccc(CCNC(=O)CSc2nc(O)cc(=O)[nH]2)cc1OC
-8.4%,N#Cc1cc2c(=O)n3ccccc3nc2n(-c2ccc(Cl)cc2)c1=O
1.5%,O=c1[nH]c(C(Cl)(Cl)Cl)nc2ccc3ccccc3c12
2.2%,CCc1ccc(CN2CCCC(C(=O)Nc3ccccc3-c3ccc(OC)cc3)C2)o1 (centres undefined)
-19.3%,CC(=O)c1cccc(NC(=S)N2CCCC2)c1
1.0%,Cc1ccc(S(=O)(=O)N2CCCC2CNC(=O)C(=O)Nc2ccccc2)cc1 (centres undefined)
4.4%,O=S(=O)(c1ccc(Br)cc1)N1CCN=C1SCc1cccc(F)c1

# Bioassay records (PubChem)
